Compound activity (PubChem)
CDC25B CDK2 inh = human CDC25B-CDK2/CyclinA binding inhibition | HTRF CDC25B-CDK2/CyclinA binding, anti-His/anti-Flag; hits give high values | 94,000 tested, 0.72% active | P30305+P24941 | z-score (concentration not given with the values);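 also: score is relative to mean and SD of negative controls; strong numbers were not always called active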
TAR Tat displ = HIV-1 TAR-Tat binding disruption; z-score (test concentration not listed); 100,000 tested, 0.6% active; AID 1259389; HIV-1 TAR RNA, Tat peptide displacement FRET; hits give high values;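 also: score is relative to mean and SD of negative controls; some compounds called inactive have numbers as strong as hits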
Numbers without * were called inactive; nt = not tested or not shown.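 The calls were made as follows: active = z-score from 3 up in half or more of its runs; inactive = the rest.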

molecule	CDC25B CDK2 inh	TAR Tat displ
N#CC1=C(N)OC2=C(C(=O)CCC2)C1c1ccc(OC(=O)c2ccccc2)cc1 (centres undefined)	-1.2	nt
O=C1NCCN1CCNC(=S)Nc1cc(C(F)(F)F)cc(C(F)(F)F)c1	-0.14	nt
CCOC(=O)CS(=O)(=O)C(c1ccccc1)S(=O)(=O)CC(=O)OCC	-1.4	nt
COc1ccccc1NC(=S)NCCC(=O)O	-0.09	nt
O=c1c2cccnc2n(Cc2ccc(Cl)cc2)c(=O)n1C1CCCCC1	-0.52	-0.64
C#CCOc1ccc(C2CC(=O)Nc3n[nH]c(-c4ccccc4)c32)cc1OC (centres undefined)	-0.07	-0.87
NC(=O)C1CCC(NC(=O)c2ccc3snnc3c2)CC1 (centres undefined)	0.79	-0.18
Cc1c2occ(-c3ccccc3)c2cc2c3c(c(=O)oc12)CCC3	-0.46	nt
COc1ccc(S(=O)(=O)N(CCS(=O)(=O)N2CCNCC2)Cc2ccccc2OC)cc1	nt	0.93
O=C(NCCCc1ccccc1)c1cnc2sccn2c1=O	nt	1.4
CCc1nc(CN2CCN(c3ccc(C(F)(F)F)cn3)CC2)c(C)[nH]1	-0.76	nt
Nc1c(C(=O)Nc2ccccc2)sc(=S)n1-c1ccccc1F	nt	1.8
CCC(C(=O)Nc1c(C)nc2cc(C)ccn2c1=O)c1ccccc1 (centres undefined)	nt	3
COc1ccc(C2C(C(=O)OCC3CCCO3)=C(C)NC3=C2C(=O)CC(C)(C)C3)cc1O (centres undefined)	0.79	-2.3
CCN(CC)CCCNc1ncnc2scc(-c3ccc(F)cc3)c12	0.78	0.39
O=C(CC1(O)C(=O)N(CCc2ccccc2)c2ccccc21)c1cccnc1 (centres undefined)	-0.74	nt
Fc1ccc(Nc2ncc3c(n2)CCN(Cc2ccc4c(c2)OCCO4)C3)cc1	nt	1.2
CCN(CC)C(=O)Cn1ncc2c([nH]c3ccccc32)c1=O	nt	0.06
Cc1ccc(-c2cc(-c3ccc(F)cc3)nc(N)c2C#N)o1	0.27	-1.8
CCN(Cc1cc2ccccc2[nH]c1=O)S(=O)(=O)c1ccc(C)cc1	-4.6	1.5
Cc1ccc(-c2csc3c2ncn2c(=O)n(CC(=O)Nc4cc(F)ccc4C)nc32)cc1	nt	0.68
Cc1cc(-c2ccc(C)c(S(=O)(=O)Nc3ccc(F)cc3C)c2)on1	nt	0.94
O=C(CSc1ncnc2nc[nH]c12)N1CCN(c2ccc(Cl)cc2)CC1	-0.1	nt
COc1ccccc1C1C(C(=O)OCC(C)C)=C(C)NC2=C1C(=O)CC(c1ccccc1)C2 (centres undefined)	0.1	0.67
CC1=C(C(=O)OC(C)C)C(c2cccc(F)c2)c2c(nc(SCC(C)C)[nH]c2=O)N1 (centres undefined)	-0.81	0.92

A section of the results above, as a working copy:
molecule	CDC25B CDK2 inh	TAR Tat displ
Cc1ccc(-c2csc3c2ncn2c(=O)n(CC(=O)Nc4cc(F)ccc4C)nc32)cc1	nt	0.68
Cc1cc(-c2ccc(C)c(S(=O)(=O)Nc3ccc(F)cc3C)c2)on1	nt	0.94
O=C(CSc1ncnc2nc[nH]c12)N1CCN(c2ccc(Cl)cc2)CC1	-0.1	nt
COc1ccccc1C1C(C(=O)OCC(C)C)=C(C)NC2=C1C(=O)CC(c1ccccc1)C2 (centres undefined)	0.1	0.67
CC1=C(C(=O)OC(C)C)C(c2cccc(F)c2)c2c(nc(SCC(C)C)[nH]c2=O)N1 (centres undefined)	-0.81	0.92

Some of the entries so far, with two lines to a compound:
Results follow in this order: CDC25B CDK2 inh | TAR Tat displ
N#CC1=C(N)OC2=C(C(=O)CCC2)C1c1ccc(OC(=O)c2ccccc2)cc1 (centres undefined)
 : -1.2 | nt
O=C1NCCN1CCNC(=S)Nc1cc(C(F)(F)F)cc(C(F)(F)F)c1
 : -0.14 | nt
CCOC(=O)CS(=O)(=O)C(c1ccccc1)S(=O)(=O)CC(=O)OCC
 : -1.4 | nt

Further results.
molecule	CDC25B CDK2 inh	TAR Tat displ
Cc1ccc2nc(NC(=O)CSc3nn4c(=O)c(C)nnc4s3)sc2c1	nt	-0.84
CNC(=O)Cn1nc(C)c2nn(-c3ccc(Cl)cc3)c(-n3cccc3)c2c1=O	nt	1.6
O=C(CN1C(=O)CCSc2ccccc21)NCc1ccccn1	-0.82	-0.24
CN(C)S(=O)(=O)N(CC(=O)NCCC1=CCCCC1)c1ccccc1	0.8	-1.4
CCOC(=O)C1=C(C)Nc2ncnn2C1c1ccc(F)cc1 (centres undefined)	nt	1.6
NS(=O)(=O)c1cccc(NC(=O)c2ccccc2)c1	-0.15	nt
Cc1ccc(Cc2cn3cc(-c4ccc(Cl)cc4)nc3s2)cc1	-1.3	-0.34
O=C(COc1ccc(Br)cc1)N(Cc1cccs1)c1ccccn1	-0.91	2.5
CCOC(=O)CC(=O)CSc1nc2c(c(C)c1C#N)CCC2	-0.38	nt
COc1ccc(-c2cc(C)no2)cc1S(=O)(=O)NCCN(Cc1ccco1)C(C)(C)C	nt	1.9
CN(Cc1ccccc1)C(=O)c1cnn2c(C(F)F)cc(-c3ccccc3)nc12	-0.19	nt
CN(CC(=O)NCCN(C)C1CCCCC1)c1nnc(N2CCCC2=O)s1	nt	1
Cc1ccc(C(=O)COC(=O)c2cc(-c3ccc(Cl)cc3)nc3ccccc23)cc1	-3.9	nt
O=C(CSc1cn(CC(=O)N2CCOCC2)c2ccccc12)N1CCCC1	nt	0.31
CCCCCn1c(C)nc2cc(C)c(C)cc21	1.3	1.3
CCOC(=O)C1=NNC2C(=O)N(c3cccc(Cl)c3C)C(=O)C12 (centres undefined)	0.21	-0.12
O=C(Nc1cc(-c2ccc(F)c(F)c2)no1)c1ccc(Br)cc1	-0.98	0.17
COCc1nc2ccccc2n1CCOc1ccc(OC)cc1	-1.2	2.2
CC(=O)c1ccc(-c2cc(C(F)(F)F)ccc2Cl)o1	-0.5	nt
Cc1nn2c(=O)cc(COC(=O)COc3ccccc3C)nc2s1	nt	-0.67
Cc1noc(C)c1S(=O)(=O)N(C)Cc1ccccc1	-1.2	0.37
CCN(Cc1cc(OC)c(OC)c(OC)c1)S(=O)(=O)c1cc(Cl)c(Cl)cc1Cl	-3.4	nt
O=C1CC2(CCCc3ccccc32)C(=O)N1CN1CCOCC1 (centres undefined)	-0.8	nt
CN1CCN(C(=O)CCCN2C(=O)c3cccnc3Oc3ccc(Cl)cc32)CC1	nt	1.4
CCOC(=O)c1oc2ccc(S(=O)(=O)Nc3ccc4c(c3)sc(=O)n4C)cc2c1C	nt	1.7
Cc1ccc(C(C)(O)C(CN2CCOCC2)c2ccccc2)cc1 (centres undefined)	-1.8	1
Cc1nn2c(=O)cc(CSc3n[nH]c(-c4ccccc4)n3)nc2s1	nt	0.27
Cc1nc2cc(-c3ccccc3)nn2c(C)c1CCC(=O)N1CCc2ccccc21	0.86	nt
CC(C)CCNC(=O)C1CCN(S(=O)(=O)c2ccc3c(c2)CC(C)N3C(=O)C2CCC2)CC1 (centres undefined)	nt	0.26
COc1ccc(Nc2nc(NCCO)nc3c2cnn3C)cc1	nt	0.94
Cn1c(C(=O)N2CCCC2)cc2sccc21	-0.63	0.24
CCOc1ccc(-c2noc(CSc3nnc(-c4ccncc4)n3C)n2)cc1	-1.7	-1.6
Cc1cc2n(n1)CCCN2CC(=O)N1CCN(C2CCCCC2)CC1	nt	-0.19
c1csc(-c2ccc(-c3nn[nH]n3)s2)c1	-4.7	nt
Cc1nc(SCC(=O)c2ccc(O)c(O)c2)n[nH]1	-2.3	2.4
CCc1nnc2sc(-c3cccc(OC)c3)nn12	-0.93	-0.17
CCn1c(SCC(=O)Nc2ccc3c(c2)OCO3)nc2c(c1=O)SCC2	-0.74	0.84
CS(=O)(=O)c1nc(S(=O)(=O)c2ccc(Cl)cc2)c(NCCCN2CCOCC2)s1	0.66	-0.02
CC(C)CNC(=O)C(=O)NCC(c1cccs1)S(=O)(=O)c1cccs1 (centres undefined)	nt	1.3
CC1=NNc2nc3c(c(=O)[nH]c(=O)n3C)n2C1C (centres undefined)	-1.5	nt
COc1ccc(-c2c(N)nc(-c3ccc(Cl)cc3)nc2SC)cc1	-0.96	nt
Cc1c(C(=O)NCCN(C)C)oc2ccc(S(=O)(=O)N3CCC4(CC3)OCCO4)cc12	1.8	nt
C=CCn1c(SCC(=O)c2ccc(Cl)cc2)nnc1-c1ccncc1	nt	2
Nc1ccccc1SCc1ncc(C(F)(F)F)cc1Cl	-1.6	nt
COc1ccc(OC)c(NC(=O)c2cc(-c3cccs3)on2)c1	-0.55	1.1
Cc1ccc(-n2cc(-c3cccs3)[nH]c2=S)cc1	0.25	nt
CCOC(=O)c1noc2ncnc(Nc3cccc(C)n3)c12	nt	-0.23
Cc1ccc(-n2nc(C)c3c(C)cc(=O)oc32)cc1Cl	0.37	0.61
CCN1/C(=C/C=C/c2sc3cc(NC(C)=O)ccc3[n+]2CC)Sc2cc(NC(C)=O)ccc21	-3.6	-10
Cc1c(C(=O)N(C)c2ccccc2F)sc2nc3n(c(=O)c12)CCCCC3	nt	-0.15

(further entries)
molecule	CDC25B CDK2 inh	TAR Tat displ
O=C1CCCc2cc(S(=O)(=O)NCCc3ccco3)ccc2N1	nt	0.13
Cc1ccc(C)c(NC(=O)NCCn2cnc3cc(C(=O)NC4CCCC4)ccc32)c1	nt	0.81
CCCSc1nc2c(c(=O)[nH]1)CCC2	-1.8	2.1
Cc1onc(-c2ccccc2)c1CN1C(=O)c2ccccc2S1(=O)=O	-0.39	nt
O=C(CSc1nc2[nH]ncc2c(=O)n1-c1cccc2ccccc12)Nc1ccccc1F	nt	2.2
O=C(CSc1nnc(-c2ccco2)o1)c1ccc(Br)cc1	0.72	-2.6
O=C(O)CCc1cccs1	-0.94	nt
COc1ccc(N2CSCc3nc4ccccc4n3C2)cc1	-1.7	nt
C=CCC(O)(c1ccc(C)cc1)C(CN1CCOCC1)c1ccccc1 (centres undefined)	-1.8	1.4
CSC(=Nc1ccccc1)Nc1ccccc1	0.57	nt
CCN(CC)c1ncnc2c1sc1nc(N3CCOCC3)c3c(c12)CC(C)(C)OC3	0.26	nt
O=C(C1CCCN(c2nc3cccnc3s2)C1)N1CCN(c2ccccc2)CC1 (centres undefined)	nt	1.1
O=C(O)CSCC(=O)N1CCN(Cc2c(F)cccc2Cl)CC1	-1.5	nt
CC(C)(C)OC(=O)C1C(=O)CC(C)(O)C(C(=O)OC(C)(C)C)C1c1cccnc1 (centres undefined)	0.16	nt
O=C(c1cc(C2CC2)[nH]n1)N1CCN(S(=O)(=O)c2ccc(Cl)cc2)CC1	nt	-0.47
CCN(CC)C(=S)Oc1c(C)c(C)nc(=S)n1CCCOC	0	nt
CC1(C)CC(CCN)(c2ccc(F)cc2)CCO1 (centres undefined)	-1.4	0.02
O=C1NC(c2ccc(F)cc2)C(C(=O)c2cccs2)C(O)(C(F)(F)F)N1 (centres undefined)	-0.72	nt
O=C1CC(c2ccccc2F)c2scc(-c3ccccc3)c2N1 (centres undefined)	nt	1.2
CC1(C)CC(=O)C(C=Nc2ccc(F)cc2F)=C(O)C1	-1.9	nt
c1ccc(-c2csc(NCc3ccco3)n2)cc1	-0.87	0.19
CCc1c(C)nc2nc(Cc3cccc(F)c3)nn2c1NCc1ccccc1	nt	0.9
CCc1ccc(S(=O)(=O)NCCc2sc(-c3ccccc3)nc2C)s1	nt	2.1
Cc1cccc(-c2nc3ccccc3c3nnc(SCC(=O)NC(C)C)n23)c1	nt	0.23
CCOC(=O)c1nc(N2CCN(c3cccc(Cl)c3)CC2)c2ccccc2n1	nt	0.6
CC(C)C(NS(=O)(=O)c1ccc2c(c1)NC(=O)CCS2)c1cccs1 (centres undefined)	nt	0.79
CCc1ccc(C(O)(CC)C(CN2CCOCC2)c2ccccc2)cc1 (centres undefined)	-0.96	3
Cc1ccc(Nc2nc3ccccc3n3c(C)nnc23)cc1C	-1.4	2.4
O=c1ncccn1[C@@H]1O[C@H](CO)C(O)C1O (some centres undefined)	nt	1.6
COc1ccc(NC(=O)c2cnc3sc(N4CCOCC4)nn3c2=O)c(OC)c1	nt	0.67
NC(=O)Cn1c(=O)n(CCCC(=O)NCc2ccco2)c(=O)c2sccc21	4.4	nt
CN1C(=O)C(C)(C)c2cc(S(=O)(=O)NC(C)(C)C)ccc21	nt	1.2
O=C(Nc1ccccc1F)NC(c1ccccc1)c1nnc(-c2ccccc2Cl)o1 (centres undefined)	nt	0.64
c1ccc(OCCSc2nnc3sc4ccccc4n23)cc1	-1.3	nt
O=C(c1ccc(Br)cc1)N(Cc1ccccc1F)C1CCS(=O)(=O)C1 (centres undefined)	-1.3	1.9
CCOC(=O)[C@H](CCc1ccccc1)N[C@H](C)C(=O)N1C2CCCCC2C[C@H]1C(=O)O (some centres undefined)	nt	1.3
C=CCSc1ncc(Cl)c(C(=O)Nc2sc3c(c2C(=O)OC)CCCC3)n1	-0.14	0.89
CCOc1ccc(-n2c(CSc3ncccn3)nnc2SCC(N)=O)cc1	-1.1	0.31
COc1ccc2[nH]c3c(=O)n(CCCCCC(=O)N4CCCC4)c(=S)[nH]c3c2c1	-1.7	nt
CCOC(=O)N1CCC(NC(=O)C2CCN(C(=O)N3CC(C)Oc4ccc(Cl)cc43)CC2)CC1 (centres undefined)	nt	-0.68
O=c1c2c(-c3ccccc3)csc2nc2n1CCCCC2	-1.3	0.81
O=c1c2ccccc2nc2n1CCN2Cc1ccc(Cl)cc1	0.74	0.69
Cc1cc(=O)nc2c3ccccc3n(CC(=O)NCCCN3CCCC3)n12	-0.47	-2.7
Cn1cnc([N+](=O)[O-])c1N1CCC(C(N)=O)CC1	-2	nt
CCn1c(NCc2ccc(C)o2)nc2ccccc21	-1.1	3.4
